miR-21 FLuc: miR-21 reporter, rising signal. 340,000 tested, under 10 active. HeLa miR-21 FLuc reporter, luciferase, 48 h. Potency, µM (highest dose often 38.3 µM), without a hit: top-dose reporter change, positive = more light; active = well fitted rising curve with a large enough effect; inconclusive = small, poorly fitted or top-dose-only effect; inactive = no such curve, though single readings can be large or run the other way;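 further: % of control where 0% means no effect; miR-21 action dims this reporter so a rising signal means less miR-21 action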
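Luminescence from a firefly luciferase reporter carrying a miR-21 binding site downstream, stably expressed under a CMV promoter in HeLa cells that make miR-21 endogenously, reports miRNA modulation after 48 h compound exposure up to approximately 40uM final.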
Active calls of the source: *; ? = inconclusive; [ ] = remark or other dose. An excerpt; count on the stated rates, not on these rows.

SMILES | miR-21 FLuc
CCOC(=O)c1ccc2c(c1)sc1nc(-c3ccc(OCC)cc3)cn12 | 0%
COC(=O)c1c(SCC(=O)Nc2ccccc2C(F)(F)F)[nH]c2ccc(Cl)cc2c1=O | -9%
CCC(C)Nc1oc(-c2ccc(COc3ccc(Cl)cc3)o2)nc1C#N (stereo unspecified) | 12%
O=C(CSc1nnc2[nH]c(=O)cc(-c3ccccc3)n12)Nc1cc(C(F)(F)F)ccc1Cl | 14%
Cc1cc(C)cc(NC(=O)CSc2nncn3c2cc2occc23)c1 | 7%
Cc1cccc(Cn2c(=O)n(CC3CCC(C(=O)N4CCOCC4)CC3)c(=O)c3sccc32)c1 (stereo unspecified) | 10%
COc1ccc(OC)c(CCNC(=O)CCCn2c(=O)c3cccn3c3cccnc32)c1 | -8%
Cn1cc(C(=O)O)c(=O)c2cc(S(=O)(=O)N3CCCCC3)ccc21 | -1%
Cc1ccccc1Cn1c(=O)n(CC2CCC(C(=O)N3CCOCC3)CC2)c(=O)c2sccc21 (stereo unspecified) | -2%
COC(=O)c1cccc(Nc2nn3c(=O)c4cc5c(cc4nc3s2)OCO5)c1 | 6%
CCOc1ccc(Br)cc1C1NC(=O)c2c(sc3c2CCN(C)C3)N1 (stereo unspecified) | -2%
CC(=O)c1ccc(NC(=O)Cn2ncc3c4ccccc4n(Cc4ccccc4)c3c2=O)cc1 | -8%
CCC1=C(c2ccc(C)cc2)S(=O)(=O)N=C1N1CCC(C(=O)NCc2ccccc2Cl)CC1 | 17%
CCc1cccc(NC(=O)Cn2cc(C(=O)c3ccncc3)c(=O)c3cc(C)c(C)cc32)c1 | -1%
CCC(=O)N1c2ccccc2CC1C(=O)NCCCN1CCN(c2ccc(F)cc2)CC1 (stereo unspecified) | 1%
O=c1oc2ccccc2c2c1C1O[C@](c3ccsc3)(Cc3c1ccc1ccccc31)O2 | -10%[7.66 µM]
COc1cc(NC(=O)Cn2ccn(-c3cc(C)cc(C)c3)c(=O)c2=O)cc(OC)c1 | 5%
CCN(Cc1ccccc1)C(=O)Cn1c(=O)n(-c2ccccc2)c(=O)c2c1c1cc(C)ccc1n2C | -1%
Cc1c(C)n(Cc2ccc(Cl)cc2)c2ccc(C(=O)NCCc3ccc(S(N)(=O)=O)cc3)cc12 | 30%
CCOc1ccc(CNC(=O)CCn2c(=O)c3cccn3c3ccc(F)cc32)cc1 | 5%
CC(C)NC(=O)N1CCN(S(=O)(=O)c2ccc3c(ccn3C)c2)CC1 | 1%
CCS(=O)(=O)N1CCCC(C(=O)NCCOC)C1 (stereo unspecified) | 1%
CCOc1ccc(-c2nnc(SCC(=O)NCCc3ccc(OC)c(OC)c3)nc2-c2ccc(OCC)cc2)cc1 | 0%
CCOC(=O)c1c(C)[nH]c(C)c1S(=O)(=O)N(C)CC(=O)N1CCN(c2ccccc2OC)CC1 | 0%
CCOc1ccccc1Nc1nc2c(S(=O)(=O)c3ccc(C)cc3)nnn2c2ccsc12 | -1%

Molecules from the list above with an NH in an aromatic ring (three):
SMILES | miR-21 FLuc
COC(=O)c1c(SCC(=O)Nc2ccccc2C(F)(F)F)[nH]c2ccc(Cl)cc2c1=O | -9%
O=C(CSc1nnc2[nH]c(=O)cc(-c3ccccc3)n12)Nc1cc(C(F)(F)F)ccc1Cl | 14%
CCOC(=O)c1c(C)[nH]c(C)c1S(=O)(=O)N(C)CC(=O)N1CCN(c2ccccc2OC)CC1 | 0%

Further structures
SMILES | miR-21 FLuc
Cc1ccc(CCNC(=O)c2ccc(Cn3c(=O)c4cccn4c4cccnc43)cc2)cc1 | -9%
CCCCOc1ccc(C(=O)Nc2ccc(S(=O)(=O)Nc3onc(C)c3C)cc2)cc1 | -7%
COc1cccc2sc(NC(=O)c3ccc4c(c3)OCCO4)nc12 | -17%
Cc1ccn2c(=O)cc(CSc3nnc(NC(=O)c4ccccc4Cl)s3)nc2c1 | 0%
COc1ccccc1NC(=O)C1=C(C)Nc2nc(SCc3ccccc3)nn2C1c1cccs1 (stereo unspecified) | 18%
O=C(Nc1ccc(F)c(F)c1)C1CCCN1S(=O)(=O)c1cccc2nsnc12 (stereo unspecified) | 2%
COc1ccc(OC)c(CNC(=O)c2cnc3c(C)cccn3c2=O)c1 | 0%
CCc1ccc2nc(N(Cc3cccnc3)C(=O)c3ccc(C#N)cc3)sc2c1 | -33%
Cc1c(NC(=O)C(C)(C)Oc2ccc(Cl)cc2)cccc1-c1nc2ncccc2o1 | 6%
CCSc1ncc(Cl)c(C(=O)Nc2c(C(=O)Nc3ccc(Cl)cc3)oc3ccccc23)n1 | -13%
CCOc1ccccc1NC(=O)c1c(NC(=O)COc2ccc(Cl)cc2)sc2c1CCCCC2 | 5%
O=C(Cc1ccc(F)cc1)NCCc1csc(-c2ccc(C(F)(F)F)cc2)n1 | 9%
Cc1c(C(=O)Nc2nc(-c3ccc(F)cc3)ns2)oc2ccc(Br)cc12 | 3%
CSc1ccc(CCNC(=O)C2CCN(c3ncnc4c3nc3n4CCCCC3)CC2)cc1 | -3%
CCC(C)NC(=O)CCSc1nc(-c2ccc(OC)cc2)cc(C(F)(F)F)n1 (stereo unspecified) | 8%
CC(=O)N1c2ccc(S(=O)(=O)NCC3CCC(C(=O)NCCC(C)C)CC3)cc2CC1C (stereo unspecified) | 5%
Cc1cc(C)c(Cn2c3ccccc3c3cnn(CC(=O)N4CCCCC4)c(=O)c32)c(C)c1 | 0%
COc1ccc(C)cc1NC(=O)Cn1nc(N2CCN(c3ccccc3OC)CC2)ccc1=O | 0%
CCc1cccc(C)c1NC(=O)Cn1ccn(-c2ccc(F)cc2)c(=O)c1=O | 1%
COc1cc(/C=C/c2nc(C#N)c(NC3CCCCC3)o2)cc(OC)c1OC | 15%
Cc1ccc(-n2nc(C(=O)Nc3ccc(C)c(F)c3)c(=O)n(C)c2=O)cc1 | -2%
COC(=O)c1ccc(NC(=O)CSc2ccc(-c3cccs3)nn2)cc1 | 0%
COc1cc(OC)cc(C(=O)Nc2cc(-c3nc4ccccc4[nH]3)ccc2C)c1 | 26%
COc1ccccc1-c1nc2c(c(SCc3cc(C)ccc3C)n1)Cc1c(CO)cnc(C)c1O2 | 2%
CC(=O)Nc1nonc1-c1nnc(SCC(=O)Nc2ccc(C)c(Cl)c2)n1C | -6%

Some of these compounds in order of length of the SMILES, rising.
SMILES | miR-21 FLuc
CCc1ccc2nc(N(Cc3cccnc3)C(=O)c3ccc(C#N)cc3)sc2c1 | -33%
Cc1ccc(CCNC(=O)c2ccc(Cn3c(=O)c4cccn4c4cccnc43)cc2)cc1 | -9%
CCSc1ncc(Cl)c(C(=O)Nc2c(C(=O)Nc3ccc(Cl)cc3)oc3ccccc23)n1 | -13%

Sorted by value in miR-21 FLuc (low to high): seven from the list above
SMILES	miR-21 FLuc
CC(=O)c1ccc(NC(=O)Cn2ncc3c4ccccc4n(Cc4ccccc4)c3c2=O)cc1	-8%
CCOc1ccc(-c2nnc(SCC(=O)NCCc3ccc(OC)c(OC)c3)nc2-c2ccc(OCC)cc2)cc1	0%
CCC(=O)N1c2ccccc2CC1C(=O)NCCCN1CCN(c2ccc(F)cc2)CC1 (stereo unspecified)	1%
CCOc1ccccc1NC(=O)c1c(NC(=O)COc2ccc(Cl)cc2)sc2c1CCCCC2	5%
Cc1c(NC(=O)C(C)(C)Oc2ccc(Cl)cc2)cccc1-c1nc2ncccc2o1	6%
Cc1cccc(Cn2c(=O)n(CC3CCC(C(=O)N4CCOCC4)CC3)c(=O)c3sccc32)c1 (stereo unspecified)	10%
CCC1=C(c2ccc(C)cc2)S(=O)(=O)N=C1N1CCC(C(=O)NCc2ccccc2Cl)CC1	17%

Further compounds:
SMILES | miR-21 FLuc
O=C(Nc1nc2n(n1)C(c1ccc(F)cc1)C=C(c1ccc(Cl)cc1)N2)c1ccco1 (stereo unspecified) | -33%
O=C1CN(C(=O)Cc2ccc(F)cc2)C(c2ccccc2)c2cc(Br)ccc2N1 (stereo unspecified) | 25%
Cc1ccn2c(Nc3ccc4c(c3)OCO4)c(-c3ccc(N(C)C)cc3)nc2c1 | -17%
CNc1c(NC(=O)c2cc(OC)cc(OC)c2)c(=O)oc2ccccc12 | 11%
Cc1cccc(Cn2c(SCc3ccc(C(=O)NCc4ccccc4F)cc3)nc3cccnc32)c1 | 27%
Cc1ccc2scc(N3CCc4ccccc4C3)c(=O)c2c1 | -35%
CC1(C)CC(=O)c2c(oc3c(Cl)cc(NS(=O)(=O)c4ccc(Br)cc4)cc23)C1 | -3%
CSc1ncc(Cl)c(C(=O)N(C)c2ccccc2)n1 | -3%
COc1cc(NC(=O)c2cc3c(s2)-c2ccccc2OC3)cc(OC)c1OC | ?
CCOC(=O)N1CCN(S(=O)(=O)N2CCCC(C(=O)NCc3cc(OC)ccc3OC)C2)CC1 (stereo unspecified) | 0%
CC1=C(C(=O)Nc2ccc(Cl)cc2)C(C(C)C)n2nc(SCc3cccc(C)c3)nc2N1 (stereo unspecified) | 0%
CC1=Nc2cc(C(=O)NC3CCCCC3)ccc2Sc2ccc(Cl)cc21 | 21%
CSc1ccc(CNC(=O)CCn2ccc3cc(S(=O)(=O)N4CCC(C)CC4)ccc32)cc1 | 14%
COc1cc(OC)cc(C(=O)NCC(c2cccs2)S(=O)(=O)c2ccc(F)c(C)c2)c1 (stereo unspecified) | ?
C=CCc1c(C)nc2nc(SCC(=O)Nc3cccc(Cl)c3)nn2c1C | 8%
C=Cc1ccc(Cn2c(C(=O)O)c(CNCc3ccccc3)c3ccc(C)cc32)cc1 | ?
Cc1nn(-c2ccccc2)c2c1N(CCCC(=O)NCc1ccc(OC(C)C)cc1)C(=O)CS2 | 21%
CCc1nnc(SCc2nc(-c3ccccc3F)oc2C)c2cc3sccc3n12 | 1%
CCOC(=O)c1c(C)oc2nc(C)nc(NCCc3ccc(OCC)cc3)c12 | 1%
Cc1ccc2c(c1)c1c(n2CC(O)CN2CCOCC2)CCCC1 (stereo unspecified) | -5%
Cc1ccc2c(c1)nc(SCC(O)c1ccc(Br)cc1)n2C (stereo unspecified) | 4%
O=C(CSc1ncc(-c2ccc(Cl)cc2)[nH]1)Nc1ccccc1F | 0%
COc1cccc(NC(=O)Cn2c(=O)n(Cc3nc(-c4ccccc4)no3)c(=O)c3ccccc32)c1 | -2%
O=S(=O)(c1ccc2nc(Nc3ccc(Br)cc3F)ccc2c1)N1CCCCC1 | 13%
CCN(CC)C(=O)Cn1c(SCC(=O)Nc2ccc(C)c(C)c2)nc2ccccc21 | -8%

(further entries)
SMILES | miR-21 FLuc
O=c1c2sc3ccccc3c2n(Cc2ccccc2Cl)c(=O)n1Cc1ccccc1 | -1%
CCOc1ccc(S(=O)(=O)N2Cc3ccccc3CC2C(=O)Nc2ccc(NC(C)=O)cc2)cc1 (stereo unspecified) | 25%
COc1ccc(NC(=O)c2c(C)oc3ccc(O)c(CN4CCCC(C)C4)c23)cc1 (stereo unspecified) | -2%
COc1cc(OC)c(NC(=O)c2c(C)nn(-c3ccc(C)cc3)c2-n2cccc2)cc1Cl | 0%
Cc1cc(C)cc(Oc2c(C(F)(F)F)oc3c(CN4CCCC(C)C4)c(O)ccc3c2=O)c1 (stereo unspecified) | 3%
Cc1ccc(-n2c3nc(=O)n(C)c(=O)c-3cc3c(Cl)cccc32)c(C)c1 | -8%
CC(=O)N1CCCc2cc(S(=O)(=O)NCc3cccc(C)c3)ccc21 | 8%
CCOC(=O)Cc1ccc(NC(=O)N2CCc3c(sc4c3CCCC4)C2c2ccc(F)cc2)cc1 (stereo unspecified) | 8%
CCC(Sc1ncnc2sc3c(c12)CCCC3)C(=O)OC(C)C (stereo unspecified) | -10%
CN1C(=O)c2cccc3c(S(=O)(=O)Nc4cccc(C(=O)O)c4)ccc1c23 | -2%
O=C(NCCCN1CCN(c2cccc(Cl)c2)CC1)c1cnn(-c2ccc(F)cc2)c1-n1cccc1 | -3%
COc1ccc(C2CC(=O)N(CC(=O)Nc3ccc(C(C)=O)cc3)c3ccccc3S2)cc1OC (stereo unspecified) | 20%
CC(=O)c1cccc(-n2c(=O)c3c4c(sc3n(Cc3cccc(C)c3)c2=O)CN(C(C)=O)CC4)c1 | -3%
CN(C(=O)c1cnc(N2CCOCC2)c2ccccc12)c1ccccc1F | 5%
O=C(Cn1ncc2c(Cl)cccc21)NCc1cccc(F)c1 | 7%
O=C(CSc1ncc2c(n1)-c1ccccc1N(Cc1ccc(Cl)cc1)S2(=O)=O)c1ccc(Cl)cc1 | 4%
COc1ccc(NC(=O)C(C)n2nc(-c3ccc(C)c(C)c3)ccc2=O)cc1OC (stereo unspecified) | -13%
COc1cc(C(CC(=O)Nc2ccc(Br)cn2)N2Cc3ccccc3C2=O)cc(OC)c1OC (stereo unspecified) | 1%
CCC(Sc1nc2cc3c(cc2c(=O)n1CCCC(=O)NCc1ccc2c(c1)OCO2)OCO3)C(=O)NCCCOC (stereo unspecified) | -1%
Cc1cccc(-c2nc3scc(CCNC(=O)c4ccc(Br)o4)n3n2)c1 | 9%
CCCN1C(=O)CN(C2CCCCC2)C(=O)C1c1ccc(OC)c(OC)c1 (stereo unspecified) | -8%
COc1ccc(CCNC(=O)c2cc(C)nc3c2c(C)nn3-c2ccccc2)cc1OC | 21%
CC(=O)Nc1ccc(S(=O)(=O)NCC2CCC(C(=O)NCc3ccccc3Cl)CC2)cc1 (stereo unspecified) | -11%
COc1cc(C2c3c(-c4ccccc4O)n[nH]c3C(=O)N2CCO)ccc1OCC(C)C (stereo unspecified) | 1%
COc1cccc(C(=O)Nc2nnc(S(=O)(=O)N3CCCc4ccccc43)s2)c1 | 0%
O=C1c2[nH]nc(-c3ccccc3O)c2C(c2ccc(F)cc2)N1CCO (stereo unspecified) | -13%
COc1ccc([C@]23Cc4cc(C#N)ccc4C(O2)c2c(cc(-c4ccccc4)oc2=O)O3)cc1 | -5%[7.66 µM]

Two records picked at random from those above, as already listed:
SMILES | miR-21 FLuc
O=C(CSc1ncc2c(n1)-c1ccccc1N(Cc1ccc(Cl)cc1)S2(=O)=O)c1ccc(Cl)cc1 | 4%
CC(=O)N1CCCc2cc(S(=O)(=O)NCc3cccc(C)c3)ccc21 | 8%
